# Mtb MenB inh – blocks the Mycobacterium tuberculosis MenB enzyme; inhibition, %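 (about 12 µg/mL by stock and volumes)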; P9WNP5; MenB enzyme assay, absorbance read-out; some hits fall short of the stated cut; 100,000 compounds, 0.43% hits;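 active means mean of two replicates above 30%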;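 further: 0% = no compound and 100% = wells with inactive enzyme; the first replicate is given; strong numbers were not always called active; inactives centre near -10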
# Target sequence (P9WNP5 whole entry, looked up): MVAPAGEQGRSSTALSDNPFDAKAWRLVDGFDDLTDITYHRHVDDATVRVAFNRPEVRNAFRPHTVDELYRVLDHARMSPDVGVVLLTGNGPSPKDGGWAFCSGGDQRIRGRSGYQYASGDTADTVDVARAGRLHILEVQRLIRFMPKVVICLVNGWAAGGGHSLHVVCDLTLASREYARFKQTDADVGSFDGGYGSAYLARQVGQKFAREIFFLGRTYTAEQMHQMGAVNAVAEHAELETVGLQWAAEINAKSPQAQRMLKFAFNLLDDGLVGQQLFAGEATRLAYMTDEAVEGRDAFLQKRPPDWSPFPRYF
# PV pol inh – inhibitors of poliovirus RNA polymerase binding and polymerization; poliovirus polymerase elongation, fluorescence polarization; hits give low values; % elongation, % (compound at 16.7 µg/mL); P03300; 150,000 compounds, 0.66% hits; AID 588519; in the data active means % elongation below about 90%; further: some results filed as inactive read as strong as hits
# Mtb MbtI inh – inhibitors of Mycobacterium tuberculosis siderophore enzyme MbtI | 100,000 compounds, 0.89% hits | AID 493033 | purified MbtI enzyme, fluorescence intensity read-out | inhibition, %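 (about 17 µg/mL by stock and volumes)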;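 active means above 50% in both replicates, above 80% if mildly self-fluorescent; inactive means the rest, strongly fluorescent compounds included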;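 further: 0% = mean of negative and 100% = mean of positive controls; one replicate is shown; some compounds called inactive have numbers as strong as hits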
# Target sequence (P9WFX0 whole entry, looked up): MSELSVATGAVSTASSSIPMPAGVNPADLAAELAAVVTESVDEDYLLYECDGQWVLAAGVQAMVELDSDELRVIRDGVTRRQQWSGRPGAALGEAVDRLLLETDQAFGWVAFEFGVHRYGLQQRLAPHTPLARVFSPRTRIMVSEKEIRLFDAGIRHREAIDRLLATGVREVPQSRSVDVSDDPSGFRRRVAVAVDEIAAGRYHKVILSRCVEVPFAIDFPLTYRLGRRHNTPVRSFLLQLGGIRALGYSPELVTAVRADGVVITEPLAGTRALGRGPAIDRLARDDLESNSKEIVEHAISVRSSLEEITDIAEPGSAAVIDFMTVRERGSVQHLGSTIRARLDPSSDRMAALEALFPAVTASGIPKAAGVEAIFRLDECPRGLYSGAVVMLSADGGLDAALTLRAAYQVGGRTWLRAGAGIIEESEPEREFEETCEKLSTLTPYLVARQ
# PV pol inh intensity – further read-out of PV pol inh, marked with its call; % elongation; measured here: total intensity read-out; formula for this scale not given here;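 total fluorescence in place of polarization; lower means less elongation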
# * hit, by the source's call; i = inactive; . = not tested or not shown.
SMILES,Mtb MenB inh,PV pol inh,PV pol inh intensity,Mtb MbtI inh
CCCn1c(N)c(N2CCCCC2)c(=O)n(CC(=O)Nc2ccccc2)c1=O,-84,100,98,-3
NC(=S)N/N=C1/C2C3CC4C5C3C1C5C1(OCCO1)C42 (stereo not drawn),-40,103,103,-6
CCOC(=O)C1(c2ccccc2)CCN(C(=O)c2c(C)oc3ccc(OC)cc23)CC1,-33,102,103,1
COC(=O)NC12CC3CC(CC(C3)C1)C2,-1,102,107,0
CC(C)OC(=O)CSc1n[nH]c(=O)[nH]c1=O,14,93,103,2
COC(=O)c1[nH]c(C)c(C(=O)OC)c1C,.,99,99,-5
C=CCSc1nc2c(cc1C#N)CCC2,-24,105,106,-5
O=S(=O)(c1ccc(Cl)cc1)C(F)(F)F,.,103,101,0
COc1ccc(CC2C(=O)NC(=O)N(c3ccccc3)C2=O)c(OC)c1 (stereo not drawn),-13,103,102,-2
COc1ccc(-c2cc(C(F)(F)F)nc(SCCC(=O)N3CCN(C)CC3)n2)cc1,33,101,101,0
O=C(Cn1cnc2c(oc3ccccc32)c1=O)c1ccccc1,1,99,102,7
Cc1cc(C(=O)NCc2ccc(C(=O)O)o2)c(C)o1,-15,99,101,13
CCOC(=O)N1CCC(N2Cc3cccc(C(=O)N4CCN(c5cccc(Cl)c5)CC4)c3C2=O)CC1,12,101,102,-4
Cc1cccc(NC(=O)C(=S)N2CCOCC2)c1C,-26,100,96,58
CCN(CC)CC(=O)Nc1ccc(S(N)(=O)=O)cc1,3,100,100,10
CCN(C(=O)CC(C)C)C1CCCCC1,-11,103,97,.
O=C(O)CCc1nc2ccccc2c(=O)n1-c1ccc(F)cc1,8,102,104,5
CC(C)(C)c1cc(C(C)(C)C)n(-c2ccc(NC(=O)COCC(=O)O)cc2)n1,-4,100,111,-4
Cn1nnc2cc(C(=O)N3CCCCC3)ccc21,-4,99,95,.
COc1ccc(OC2C(=O)N(Cc3ccc4c(c3)OCO4)C2c2cccs2)cc1 (stereo not drawn),-15,103,112,.
COC(=O)C12CC3(C(=O)OC)CC(C(=O)OC)(CC(C(=O)OC)(C1)C3=O)C2=O,-13,97,89,.
CCSc1nnc2c3cc(Br)ccc3n(C)c2n1,-2,100,99,-1
O=C(NC1CCCCCC1)C1=CN2CCS(=O)(=O)N=C2C=C1,-8,102,104,108
O=C(CCC(=O)N1CCSc2ccccc21)N1CCCCC1,-7,101,95,14
COC(=O)c1cn(CC(=O)OCC(=O)Nc2ccc(N3CCOCC3)cc2)c2ccccc12,2,99,102,5
O=C(CSc1ccccc1Cl)N1CCCC1,.,103,105,-11
Cc1cc2oc(=O)cc(CSc3ncccn3)c2cc1Cl,-21,105,116,63
Cc1cc(NC(=O)C2c3ccccc3C(=O)N(CC(C)C)C2c2cccs2)no1 (stereo not drawn),-5,100,105,-8
O=C(Cn1c2ccccc2c2ccccc21)Sc1nc2ccccc2s1,-4,103,103,-116
O=C(NCc1ccc2c(c1)OCO2)c1ccccn1,8,106,109,-15
CC(C)c1ccc(Nc2nc(N3CCCCC3)nc(N3CCCCC3)n2)cc1,7,104,107,.
CN1CCCN(C(=O)C2CCCCC2)CC1,.,101,102,-2
Cc1cc(C)nc(Nc2n[nH]c(COc3ccc4ccccc4c3)n2)n1,-7,103,103,-5
Cc1cc(C)c(C(=O)COc2ccc(-c3nnco3)cc2)cc1C,-29,98,102,13
CC(=O)N/N=C/c1ccc(Sc2ccc(C)cc2)o1,4,98,103,-5
COc1ccc(OC)c(NC(=O)C2CCCCC2C(=O)O)c1 (stereo not drawn),-12,99,103,-3
O=c1ccc(-c2ccc3c(c2)OCO3)n[nH]1,6,101,101,-12
CCOc1cc(CNC23CC4CC(CC(C4)C2)C3)ccc1OCc1cccs1,6,99,101,9
Cc1ccc(OCc2nnc(SCC(=O)Nc3nccs3)n2C(C)C)c(C)c1,7,99,101,-5
CCCCNC(=O)C1CCCN(S(=O)(=O)c2ccc(-n3cnnn3)cc2)C1 (stereo not drawn),13,103,101,-4
O=C(COc1ccccc1)n1c(=O)oc2ccccc21,-25,101,95,1
NNC(=O)/C(=C\c1ccccc1)NC(=O)c1ccccc1,14,106,109,-4
O=C(CSc1ncn[nH]1)c1ccc(O)cc1O,-7,100,101,23
COc1ccc(-c2nc(CSc3nncs3)cs2)cc1,-14,102,106,-30
Cc1ccc(O)c(C(=O)c2cnc(Nc3nc4ccccc4[nH]3)nc2)c1,-5,97,113,2
COc1cc(-c2nc3c4ccccc4c4ccccc4c3[nH]2)ccc1O,-4,99,101,i
O=C1CCCN1C(=O)CSc1nc2ccccc2o1,-11,103,100,-2
C=CCN(CC=C)C(=S)Oc1ccc(C(=O)Nc2cccc3ccccc23)cc1,-25,103,103,.
CCOCC(=O)NC1CCSC1=O (stereo not drawn),-72,100,106,-13
COc1ccc(NC(=O)c2cc(=O)[nH]c3ccccc23)cc1,-29,104,104,-9
CC(=O)OCCn1nc(C)cc1Nc1ccccc1,.,104,98,4
CCN(CC)C(=S)SCc1nc2ccccc2c(=O)[nH]1,-30,102,112,66
COc1ccc(-c2nn(CCC#N)c(=O)[nH]2)cc1,9,100,108,-13
O=C1CC2(CCCCC2)C(=O)N1Cc1ccc(Cl)cc1,3,102,108,3
Cc1cc(-n2c(C)cc(C(=O)COC(=O)C34CCC(=O)N3c3ccccc3S4)c2C)no1 (stereo not drawn),-15,103,102,19
COC(=O)c1sc(=S)sc1C(=O)OC,0,107,104,34
Cn1c(=O)c2ccccc2n2c(COC(=O)c3cc4c(s3)-c3ccccc3CC4)nnc12,-24,107,108,101
O=C(NC1CCCC1)C1CCN(C(=O)N2CCOc3ccccc32)CC1,-13,98,101,-15
CN(C)S(=O)(=O)c1ccc(C(=O)OC2=CC(=O)CC(C)(C)C2)cc1,-64,102,112,-15
COc1ccc(-n2cnc3cc(N=Cc4ccccc4O)ccc32)cc1,.,102,98,-22
# Next results follow:
SMILES,Mtb MenB inh,PV pol inh,PV pol inh intensity,Mtb MbtI inh
N#CC(C#N)C(c1ccccc1Cl)C(C(N)=O)[n+]1ccccc1 (stereo not drawn),6,107,117,.
Cc1nc(C)c(CCC(=O)O)c(=O)[nH]1,-19,108,106,1
O=C(O)CCS(=O)(=O)N1CCOCC1,-15,102,92,8
c1ccc2[nH]c(SCCN3CCCC3)nc2c1,16,102,103,-3
COc1ccc(-c2cc3nc(C)c(CCC(=O)Nc4ccccc4C(N)=O)c(C)n3n2)c(OC)c1,-22,101,101,37
COc1nc(NC23CC4CC(CC(C4)C2)C3)nc(OC)n1,3,103,103,4
CC1=C(C(=O)Nc2ccccc2)C(c2ccncc2)n2ncnc2N1 (stereo not drawn),-6,103,105,-10
Cc1ccccc1-c1noc(-c2nnn(-c3ccc(C(F)(F)F)c(Cl)c3)c2N)n1,-2,102,104,-12
CC1C(O)CCC1(C(=O)O)c1ccccc1 (stereo not drawn),-23,102,105,-32
Cc1ccc2nc(-c3ccc(Br)o3)c(Nc3ccc4c(c3)OCCO4)n2c1,-5,99,104,43
COc1ccc(NC(=O)CCc2nc3cccnc3n2Cc2cccs2)cc1OC,-37,106,115,1
O=C(CSCn1nnc2c(=O)[nH]c(Cc3ccc(F)cc3)nc21)Nc1ccc(F)cc1,12,101,105,-12
CCCN(CC1CC1)C(=O)CSc1nc2ccccc2[nH]1,-21,109,123,-5
N#CC(C(=S)Nc1ccccc1)c1nc2ccccc2[nH]1 (stereo not drawn),-1,103,112,-11
N#Cc1cn(Cc2ccccc2)c2ccccc12,5,101,102,-7
Cc1ccc2c(CC(=O)NCC3COc4ccccc4O3)coc2c1 (stereo not drawn),-26,107,107,-4
O=C(c1cnc2c(c1)COc1ccccc1-2)c1cc(Cl)ccc1O,-16,103,105,.
c1ccc(CN2CCN(Cc3ccc4c(c3)OCO4)CC2)cc1,12,97,102,-3
CC(=O)N1CC(=O)N(O)C1c1ccc(Cl)cc1Cl (stereo not drawn),-9,99,102,3
CN(C)CCN(Cc1ccccc1)Cc1ccc(Cl)cc1,-5,102,102,.
CCOC(=O)Nc1nc2c(Cl)cccc2s1,7,102,103,.
CC1CCCCC1Nc1nc2ccccc2n2nnnc12 (stereo not drawn),-23,89,134,5
Oc1cccc(/C=N/N2CCCCC2)c1O,13,106,106,.
CCOC(=O)COc1cccc2c(=O)n(CC(=O)NCc3ccc4c(c3)OCO4)ccc12,-17,105,107,6
O=C(Nc1nnc(C2CC2)s1)C1Cc2ccccc2CN1S(=O)(=O)c1ccccc1F (stereo not drawn),-21,106,108,-2
CN(c1ccccc1)S(=O)(=O)c1cccc(C(=O)OCc2nnc(-c3ccccc3)o2)c1,-7,104,105,-8
CCn1c(C)c(CCC(=O)N2CCCC2)c(=O)n2nc(-c3ccccc3OC)cc12,-10,100,101,84
CCCOc1ccc(Cc2nc(N)c(NC(C)=O)c(=O)[nH]2)cc1,5,109,115,.
CC1CCN(C(=O)C2CCN(c3nnc(-n4cccc4)s3)CC2)CC1,-45,106,100,1
Cc1csc(C(C#N)C(=O)CSc2nc3ccccc3n2-c2ccccc2)n1 (stereo not drawn),-32,118,109,-14
CCOC(=O)c1c(C)[nH]c(C(=O)Cn2ncc(Cl)c(Cl)c2=O)c1C,-9,106,106,-3
O=P(O)(Nc1ccccc1)Nc1ccccc1,-13,105,99,.
O=C(OCN1C(=O)c2ccccc2C1=O)c1ccc2ncsc2c1,4,101,109,-5
Cc1ccc(C)c(OCC(=O)N(Cc2nnc(-c3ccc(Cl)cc3)o2)C2CC2)c1,-12,101,106,11
Cc1ccc(N2CCN(C(=O)c3nc(-c4ccncc4)no3)CC2)c(C)c1,-3,102,104,-6
CC(C)=C(C#N)c1nc2ccccc2[nH]1,.,99,107,20
c1ccc(CN2CCC(Nc3ncnc4sccc34)CC2)cc1,-1,104,107,-6
O=C([C@H](Cc1ccccc1)N1Cc2ccccc2C1=O)N1CCN(c2ccc(F)cc2)CC1,-24,101,99,5
Cc1cccc(OCCCC(=O)N2CCN(S(=O)(=O)c3ccc4c(c3)OCCO4)CC2)c1,-24,103,101,12
N#C/C=C/N1CCC(CCCC2CCN(/C=C/C#N)CC2)CC1,-3,101,108,-3
O=C(CN1C(=O)c2ccccc2C1=O)OCc1ccccc1,-6,98,100,1
CCc1ccc(NC(=O)CSc2nc3c(c(=O)n2CC)SC(C)C3)cc1 (stereo not drawn),-8,100,101,-5
Cn1cccc1/C=N/n1c(COc2ccccc2)n[nH]c1=S,-69,90,99,.
C/C(N)=C(/C#N)C(=O)CSc1nnc(-c2ccc(Cl)cc2)n1CC1CCCO1 (stereo not drawn),-72,99,105,7
CCn1c(=N)c(S(=O)(=O)c2ccc(C)cc2)cc2c(=O)n3ccccc3nc21,-5,103,103,28
O=C(COC(=O)C12CC3CC(CC(Br)(C3)C1)C2)N1CCCCC1,.,101,108,-7
CCC(=O)Nc1ccc(C(=O)N2CCN(CC)CC2)cc1,2,101,102,-8
COCCOC(=O)c1c(NC(=O)COC(=O)[C@@H]2CCCN2S(C)(=O)=O)sc(C(N)=O)c1C,-17,107,109,-17
O=C(Sc1cccc2cccnc12)N1CCOCC1,-8,101,104,91
O=C1C2C(C(=O)C3C1C1C=CC3C13CC3)C1C=CC2C12CC2 (stereo not drawn),-8,98,105,13
CC(C)CC(=O)Nc1cccc(-c2cn3ccsc3n2)c1,20,101,101,5
COC(=O)Nc1c(Cl)nsc1S(=O)(=O)Cc1ccccc1,-4,99,98,.
O=C(NCC1CCCO1)c1nn(-c2ccc(Cl)cc2)nc1CO (stereo not drawn),-7,103,100,132
O=C(Cn1cnc2ccccc21)NN=C1C2CC3CC(C2)CC1C3,6,106,112,5
N#CC1(C#N)C2C=CC(C2)C1(C#N)C#N,-16,103,104,12
CC(C)C(C(=O)Nc1nccs1)c1ccc(Cl)cc1 (stereo not drawn),.,97,100,-5
CN(C)c1ccc(C(=O)OCC(=O)c2cccc(C(F)(F)F)c2)cc1,.,99,98,-1

# Compound activity: PubChem BioAssay, ICCB-Longwood Screening Facility, Harvard Medical School
